# MenB inh: Mtb MenB enzyme inhibition; P9WNP5; MenB enzyme assay, absorbance read-out; some hits fall short of the stated cut; inhibition, %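 (about 12 µg/mL by stock and volumes)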; hit rate 0.43% among 100,000; AID 540299;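 active means mean of two replicates above 30%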;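 further: 0% = no compound and 100% = wells with inactive enzyme; the first replicate is given; strong numbers were not always called active; inactives centre near -10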
# Mtb MbtI inh: MbtI salicylate synthase inhibition | P9WFX0 | purified MbtI enzyme, fluorescence intensity read-out | inhibition, %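 (about 17 µg/mL by stock and volumes)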 | hit rate 0.89% among 100,000 | AID 493033;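 active means above 50% in both replicates, above 80% if mildly self-fluorescent; inactive means the rest, strongly fluorescent compounds included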;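 further: 0% = mean of negative and 100% = mean of positive controls; one replicate is shown; some compounds called inactive have numbers as strong as hits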
# Target sequence (P9WFX0 whole entry, looked up): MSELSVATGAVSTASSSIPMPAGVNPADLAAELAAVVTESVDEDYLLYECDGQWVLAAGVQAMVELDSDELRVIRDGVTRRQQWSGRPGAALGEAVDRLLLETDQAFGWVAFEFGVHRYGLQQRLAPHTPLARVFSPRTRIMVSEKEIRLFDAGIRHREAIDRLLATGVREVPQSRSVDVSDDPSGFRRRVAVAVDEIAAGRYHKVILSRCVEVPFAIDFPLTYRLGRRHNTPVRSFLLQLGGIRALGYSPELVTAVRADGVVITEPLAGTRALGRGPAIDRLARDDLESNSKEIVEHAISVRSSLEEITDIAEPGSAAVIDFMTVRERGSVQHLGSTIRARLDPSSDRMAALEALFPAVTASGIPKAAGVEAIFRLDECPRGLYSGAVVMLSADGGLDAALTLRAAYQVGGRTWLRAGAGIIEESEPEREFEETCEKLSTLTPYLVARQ
# Polio RdRp inh: poliovirus RNA polymerase inhibition | poliovirus polymerase elongation, fluorescence polarization; hits give low values | AID 588519 | % elongation, % (compound at 16.7 µg/mL) | hit rate 0.66% among 150,000; in the data active means % elongation below about 90%; further: some results filed as inactive read as strong as hits
# Target sequence (P03300 1749-2209 limits assumed): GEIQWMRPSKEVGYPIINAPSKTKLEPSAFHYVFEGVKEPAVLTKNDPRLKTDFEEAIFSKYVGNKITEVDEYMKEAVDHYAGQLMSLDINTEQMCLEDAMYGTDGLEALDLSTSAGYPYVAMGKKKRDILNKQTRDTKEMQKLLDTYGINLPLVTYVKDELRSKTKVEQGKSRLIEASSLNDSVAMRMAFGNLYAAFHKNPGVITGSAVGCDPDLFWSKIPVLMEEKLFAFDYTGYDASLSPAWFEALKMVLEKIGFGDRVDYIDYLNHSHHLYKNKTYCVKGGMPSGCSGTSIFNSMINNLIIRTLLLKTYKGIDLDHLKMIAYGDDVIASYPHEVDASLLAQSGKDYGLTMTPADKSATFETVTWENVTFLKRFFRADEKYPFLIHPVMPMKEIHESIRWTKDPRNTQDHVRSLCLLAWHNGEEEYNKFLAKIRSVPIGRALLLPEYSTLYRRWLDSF
# Polio RdRp inh intensity: further read-out of Polio RdRp inh, marked with its call; % elongation; measured here: total intensity read-out; formula for this scale not given here;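 total fluorescence in place of polarization; lower means less elongation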
# * marks the source's active call; other numbers are inactive results; / = not tested or not shown.
# Letters: A = MenB inh; B = Mtb MbtI inh; C = Polio RdRp inh; D = Polio RdRp inh intensity
c1ccc(CSc2ncccn2)cc1
  A = 0	B = 60*	C = 102	D = 98
Cc1ccc(CSc2nnnn2-c2ccccc2)cc1
  A = -88	B = 2	C = 101	D = 102
O=C(N/N=C\c1ccco1)c1ccc(S(=O)(=O)N2CCCCCC2)cc1
  A = -31	B = 10	C = 100	D = 100
c1ccc(CCCN2CCN(Cc3ccccc3)CC2)cc1
  A = -7	B = -8	C = 99	D = 102
O=C(Oc1ccccc1)c1ccco1
  A = -32	B = -3	C = 99	D = 103
CCOC(=O)C1CCN(C(=O)c2ccccc2SCCOC)CC1
  A = 7	B = 11	C = 101	D = 103
N#Cc1ccc(-n2c(-c3ccccc3)nnc2-c2ccccc2)cc1C#N
  A = -7	B = /	C = 103	D = 108
COc1ccc(Br)c(C(=O)Nc2c(C)nc3nc[nH]n3c2=O)c1
  A = 0	B = -6	C = 100	D = 101
Cc1cccc(NC(=S)NC(=O)/C=C/c2ccco2)c1
  A = 10	B = 14	C = 101	D = 114
Cc1ccc(CNC(=O)CN(C)S(=O)(=O)c2cccs2)cc1
  A = -18	B = 11	C = 101	D = 104

# Overlap with the part before: 2 entries, then new ones.
# Letters: A = MenB inh; B = Mtb MbtI inh; C = Polio RdRp inh; D = Polio RdRp inh intensity
Cc1cccc(NC(=S)NC(=O)/C=C/c2ccco2)c1
  A = 10	B = 14	C = 101	D = 114
Cc1ccc(CNC(=O)CN(C)S(=O)(=O)c2cccs2)cc1
  A = -18	B = 11	C = 101	D = 104
CN(C)C(=S)Nc1ccc2c(c1)OCCO2
  A = -17	B = 4	C = 103	D = 104
CN(C)/C=C1\SC(=O)N(c2ccccc2)C1=O
  A = -16	B = 2	C = 104	D = 99
CCCCOc1ccc(C(=O)NCC(=O)NC2CC2)cc1
  A = -21	B = -5	C = 109	D = 124
O=c1[nH]cc(N2CCN(Cc3ccccc3)CC2)c(=O)[nH]1
  A = 8	B = -4	C = 104	D = 107
O=C(c1cc(C2CC2)on1)N1CCN(C(c2ccccc2)c2ccccc2)CC1
  A = -4	B = -9	C = 99	D = 103
CCCCN(CC)S(=O)(=O)c1cccc2cccnc12
  A = -43	B = -3	C = 104	D = 103
CN(C(=O)c1nc(-c2cccc(F)c2)n2c1CCCCC2)c1ccccc1
  A = -28	B = 2	C = 105	D = 99
COc1ccc(S(=O)(=O)N2CCN(C(=O)N(C)C)C2c2ccccc2)cc1 (stereo not given)
  A = -10	B = 6	C = 104	D = 105
N#CC(C#N)=Cc1ccc(OCc2ccsc2C#N)cc1
  A = -8	B = -48	C = 102	D = 106
Cc1cc(C)cc(Nc2csc(/N=C/NO)n2)c1
  A = -6	B = /	C = 109	D = 113
Cc1ccc(NCc2c(C)[nH]c3ccccc3c2=O)cc1C
  A = -25	B = -4	C = 102	D = 101
CCn1nccc1C(=O)Nc1cc(Cl)ccc1Cl
  A = -11	B = -45	C = 98	D = 102
CC(=O)N1N=C(c2ccc(N(C)C)cc2)CC1NC(Cc1c[nH]c2ccccc12)C(=O)O (stereo not given)
  A = -21	B = /	C = 105	D = 110
CNc1nc(OC)nc(N2CCOCC2)n1
  A = 3	B = -7	C = 100	D = 109
Cc1ccsc1C(=O)OCC(=O)N1CCc2ccccc21
  A = /	B = -4	C = 102	D = 105
COc1ccc(N/C=C/C(=O)C(C)(C)C)cc1
  A = -19	B = -14	C = 99	D = 101
O=C(NCC1CCCO1)c1ccc(CN2CCc3ccccc3C2)cc1 (stereo not given)
  A = -1	B = /	C = 100	D = 104
CCOC(=O)C1CN(C)CCC1=O (stereo not given)
  A = 15	B = -2	C = 102	D = 101
CCNc1nc(SCC(=O)OC)nc(N(C)C)n1
  A = 24	B = 2	C = 100	D = 103
c1cncc(N=c2scc(-c3cccs3)n2C2CCCC2)c1
  A = -5	B = 15	C = 107	D = 101

# Laid out differently: entries from further up
SMILES: Cc1ccsc1C(=O)OCC(=O)N1CCc2ccccc21
  MenB inh: /
  Mtb MbtI inh: -4
  Polio RdRp inh: 102
  Polio RdRp inh intensity: 105

SMILES: N#Cc1ccc(-n2c(-c3ccccc3)nnc2-c2ccccc2)cc1C#N
  MenB inh: -7
  Mtb MbtI inh: /
  Polio RdRp inh: 103
  Polio RdRp inh intensity: 108

SMILES: c1ccc(CSc2ncccn2)cc1
  MenB inh: 0
  Mtb MbtI inh: 60*
  Polio RdRp inh: 102
  Polio RdRp inh intensity: 98

# (more compounds)
# Letters: A = MenB inh; B = Mtb MbtI inh; C = Polio RdRp inh; D = Polio RdRp inh intensity
CCOC(=O)c1cnc(=S)[nH]c1C(F)(F)F
  A = -13	B = 8	C = 104	D = 104
O=C(O)c1ccc(O)c(-n2c(=O)c3cc4c(=O)n(-c5cc(C(=O)O)ccc5O)c(=O)c4cc3c2=O)c1
  A = -35	B = -5	C = 105	D = 99
CCOC(=O)c1ccc(N2Cc3cc(C)c(C)cc3C2)cc1O
  A = -19	B = 13	C = 101	D = 99
COc1cc(OC)c2nc(C)c3c(c2c1)CN(C(=O)Nc1ccccc1)C3
  A = -8	B = 60	C = 103	D = 102
CCN=C1S/C(=C\c2ccc(C(=O)OC)cc2)C(=O)N1CC
  A = 3	B = -2	C = 100	D = 99
O=C(O)CCN1C(=O)Cc2ccccc2C1=O
  A = -25	B = 6	C = 22*	D = 42*
Cc1cc(C)n2nc(SCC(=O)NCCC3=CCCCC3)nc2n1
  A = 12	B = 1	C = 98	D = 101
C/C(N)=C(/C#N)C(=O)CSc1cc(Cl)ccc1Cl
  A = -6	B = -4	C = 105	D = 98
CNC(=O)C(C)n1c(C)c2cnn(-c3ccccc3)c(=O)c2c1C (stereo not given)
  A = 9	B = 2	C = 103	D = 99
COc1cccc(-n2cc(C(=O)N3CCN(C(=O)c4ccco4)CC3)c3ccccc3c2=O)c1
  A = -24	B = -16	C = 104	D = 102

# Results in Mtb MbtI inh and Polio RdRp inh intensity, for two of the compounds above:
SMILES	Mtb MbtI inh	Polio RdRp inh intensity
CCCCOc1ccc(C(=O)NCC(=O)NC2CC2)cc1	-5	124
O=c1[nH]cc(N2CCN(Cc3ccccc3)CC2)c(=O)[nH]1	-4	107

# (further entries)
# Letters: A = MenB inh; B = Mtb MbtI inh; C = Polio RdRp inh; D = Polio RdRp inh intensity
N[C@@H]1C[C@H]1c1ccccc1
  A = 36*	B = 6	C = 99	D = 103
CCCCn1c(C2CC2)nc2cc(S(=O)(=O)N3CCOCC3)ccc21
  A = -23	B = -4	C = 107	D = 125
CC(c1ccccc1)n1c(CCn2ncc3ccccc3c2=O)n[nH]c1=S (stereo not given)
  A = -16	B = 14	C = 105	D = 101
Cc1cc2[nH]c(=O)c(=O)[nH]c2cc1S(=O)(=O)N(CC(C)C)CC(C)C
  A = -10	B = -4	C = 103	D = 103
Cn1c(=O)c(C(=O)N2CCN(Cc3ccccc3)CC2)cc2cccnc21
  A = -16	B = 7	C = 106	D = 99
CN(CCOc1ccccc1Cl)Cc1ccccc1
  A = 5	B = -11	C = 104	D = 109
CCC(C)(C)C(=O)Nc1cc(C)cc(C)c1
  A = -10	B = /	C = 103	D = 105
Cc1ccccc1-c1nnc2n1C(C)(C)Cc1ccccc1-2
  A = -19	B = /	C = 110	D = 108
CC1Cc2ccccc2N1C(=O)CSc1nnc2n1C(C)(C)Cc1ccccc1-2 (stereo not given)
  A = -43	B = -9	C = 102	D = 102
CCN(CC)Cc1cc(C(=O)O)oc1C(C)(C)C
  A = -33	B = -9	C = 105	D = 99
COC1=C(OC)C2(C=CC1=O)CC(C)(C)N=C2SC (stereo not given)
  A = -10	B = 6	C = 101	D = 100
Cc1ccc(S(=O)(=O)N(C)c2ccc(OCC(=O)OCC(N)=O)cc2)cc1
  A = -21	B = -15	C = 105	D = 108
Cc1ccc2cccc(OCC(N)=O)c2n1
  A = -13	B = 67	C = 99	D = 102
CCOC(=O)c1ccc2nc(/N=C/NOC(=O)c3cccs3)sc2c1
  A = 14	B = 110	C = 101	D = 95
CC(C)C(c1nnnn1C1CCCC1)N1CCN(C(=O)c2ccco2)CC1 (stereo not given)
  A = 5	B = -7	C = 104	D = 101
N#CCON1C(=O)c2ccccc2C1=O
  A = -4	B = 6	C = 101	D = 100
O=C(COC(=O)Cc1ccc(Cl)cc1Cl)NC1CC1
  A = /	B = -8	C = 100	D = 104
CCOC(=O)Cn1ccc2cc(S(=O)(=O)N3CCCC3)ccc21
  A = 7	B = 9	C = 103	D = 104
O=C(O)c1cc(/C=N/n2cnnc2)c2c(c1)COCO2
  A = -218	B = /	C = 50	D = 143
CCOC(=O)NC(=S)c1ccc[nH]1
  A = -50	B = 12	C = 106	D = 101
CCn1c(=O)c2cc(C(=O)N(Cc3ccccc3)C(C)C)sc2c2ccccc21
  A = -10	B = 38	C = 100	D = 102
CCC(C)NS(=O)(=O)c1cccs1 (stereo not given)
  A = -2	B = 1	C = 102	D = 96
CCN1CN=C(Nc2nc(C)c3cc(C)ccc3n2)NC1
  A = -12	B = 9	C = 101	D = 104
N#CCC(=O)NCc1ccc(Cl)cc1
  A = 10	B = -7	C = 102	D = 111
Cc1nn(-c2ccccc2)nc1C(=O)N(C)c1nnc(C(F)(F)F)s1
  A = -3	B = -6	C = 104	D = 111
CCOc1cc2c(cc1CNC(=O)C1CC1)OC(C)C2 (stereo not given)
  A = 8	B = -7	C = 102	D = 110
Cc1cc2n(n1)C(c1cc(C(C)(C)C)c(O)cc1O)Nc1c(C)cccc1-2 (stereo not given)
  A = -30	B = 98	C = 101	D = 102
NCCc1ccc(O)cc1
  A = 0	B = -8	C = 101	D = 100
O=C(COc1ccc2ccc(=O)oc2c1)Nc1ccc2c(c1)OCCCO2
  A = 8	B = 25	C = 102	D = 117
Brc1ccc(-c2csc(N/N=C/c3ccco3)n2)cc1
  A = -48	B = -2	C = 100	D = 107
CCCN1CCCc2cc(CN(CCCN3CCOCC3)C(=O)Nc3ccccc3)ccc21
  A = -24	B = -20	C = 100	D = 103
C=CCNC(=O)c1ccc(Cl)c(S(C)(=O)=O)c1
  A = -29	B = 49	C = 98	D = 97
O=C(CSc1nnc(-c2ccc3c(=O)n4c(nc3c2)CCCCC4)o1)C12CC3CC(CC(C3)C1)C2
  A = 14	B = 5	C = 100	D = 98
CCCCc1nn2c(=O)cc(CSc3nnc(NC(=O)c4ccco4)s3)nc2s1
  A = -5	B = -23	C = 101	D = 103
O=C(C1=C(O)C(=O)N(Cc2ccccc2)C1c1ccco1)c1ccco1 (stereo not given)
  A = -53	B = 8	C = 101	D = 106
O=C(COc1ccc(C2Nc3cccc4cccc(c34)N2)cc1)Nc1ccccc1
  A = -27	B = -21	C = 101	D = 113
CCN(CC)C(=O)C1CCN(Cc2ccc(Br)cc2)CC1
  A = 6	B = /	C = 99	D = 101
Cc1cc(C(F)(F)F)nc(/N=C(\N)Nc2ccc(Cl)cc2)n1
  A = -7	B = -8	C = 102	D = 102
Cc1nc2cc(C(=O)O)ccc2n1C
  A = -11	B = -12	C = 101	D = 100
Cc1ccc2c(NC(=O)C3CC3)cccc2n1
  A = 18	B = 7	C = 100	D = 101
COC(=O)c1ccc(CSc2nnc3n(Cc4ccc(C)cc4)c(=O)c4ccccc4n23)o1
  A = -9	B = 2	C = 101	D = 101
COc1ccc(NC(=O)/C=C/c2ccc(OC)c(OC)c2)cn1
  A = -43	B = 30	C = 102	D = 101
CC(C)(C)S(=O)(=O)/C(C#N)=C/c1cc(C(F)(F)F)cc(C(F)(F)F)c1
  A = 4	B = -9	C = 98	D = 109
COc1ccc(-c2nc3c([nH]2)CCc2nonc2-3)cc1
  A = -14	B = 16	C = 103	D = 102
O=C(Cn1c(=O)c(C(F)(F)F)nc2ccccc21)N1CCc2ccccc21
  A = -8	B = 8	C = 100	D = 101
Cc1ccc(C(c2c(O)[nH]c(=S)[nH]c2=O)N2CCC(C)CC2)cc1 (stereo not given)
  A = -49	B = 66*	C = 98	D = 104
CSc1nc2ccccc2n1-c1ccccc1
  A = -15	B = -5	C = 99	D = 101
N#Cc1c(NC(=O)c2ccco2)sc2c1CCCC2
  A = -14	B = 71	C = 102	D = 102
Cc1cccc(NCc2cn3ccccc3n2)c1
  A = /	B = -5	C = 103	D = 101
N#Cc1c(-c2ccccc2Cl)c(C#N)c2nc3ccccc3n2c1N
  A = -32	B = 17	C = 105	D = 107
CC(C)OC(=O)CSC1=C(C#N)C(c2ccccc2Cl)CC(=O)N1 (stereo not given)
  A = 1	B = 3	C = 104	D = 102

# Molecules listed so far containing a CF3 group:
# Letters: A = MenB inh; B = Mtb MbtI inh; C = Polio RdRp inh; D = Polio RdRp inh intensity
CCOC(=O)c1cnc(=S)[nH]c1C(F)(F)F
  A = -13	B = 8	C = 104	D = 104
Cc1nn(-c2ccccc2)nc1C(=O)N(C)c1nnc(C(F)(F)F)s1
  A = -3	B = -6	C = 104	D = 111
Cc1cc(C(F)(F)F)nc(/N=C(\N)Nc2ccc(Cl)cc2)n1
  A = -7	B = -8	C = 102	D = 102
CC(C)(C)S(=O)(=O)/C(C#N)=C/c1cc(C(F)(F)F)cc(C(F)(F)F)c1
  A = 4	B = -9	C = 98	D = 109
O=C(Cn1c(=O)c(C(F)(F)F)nc2ccccc21)N1CCc2ccccc21
  A = -8	B = 8	C = 100	D = 101

# Screening data as filed in PubChem BioAssay.
